NPYLR7 ag: activates Aedes aegypti NPYLR7 receptor | HEK293T NPYLR7/Galpha15, GCaMP6s calcium fluorescence | activation, % at 10 µM | AID 1259423 | 270,000 tested, 0.15% active; in the data active means activation above about 40%;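 further: 0% = vehicle and 100% = reference agonist at the receptor; some compounds past the cut are filed as inactive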
NPYLR7 ag max-min: second read-out of NPYLR7 ag, no call of its own (marks repeat the call); activation, %; measured here: Max-Min RFU normalised activation; some inactives read as strong as hits;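 span of the calcium signal over five minutes; 0% = vehicle and 100% = native peptide agonist; compound fluorescence can raise it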
The depositor's hits bear a star; & = joins results of further samples. Not all compounds are listed (hit frequency here may not be typical).

SMILES	NPYLR7 ag	NPYLR7 ag max-min
C=CCn1c(=N)n(CC(O)c2ccco2)c2ccccc21 (stereo unspecified)	-2	-3
Cc1[nH]n(CC(C)C)c(=O)c1C(=O)Nc1nncs1	0	26
COc1ccc(CSCc2csc(-c3ccc(C(F)(F)F)cc3)n2)cc1	23	23
CC(C)COc1ccc(S(=O)(=O)N2CCCC2)cc1[N+](=O)[O-]	4	-2
Cc1ccc(-c2csc(C=Cc3c(C)noc3C)n2)cc1	-1	-2
Brc1ccccc1C1N=C(c2ccccc2)NO1 (stereo unspecified)	-8	-9
CS(=O)(=O)c1ccc(CN2C[C@@H]3[C@H](C2)[C@H]2CC[C@@H]3O2)cc1	15	5
Cc1noc(C)c1-n1c(C2CCCCC2)n[nH]c1=O	19	3
COCC(=O)Nc1cccc(NC(=O)c2cc(C)c(F)cc2F)c1	3	1
Cc1ncsc1C(=O)N1C[C@@H]2CCCN(C(=O)c3scnc3C)[C@@H]2C1	1	-1
Cc1ccc(CN(CCc2c[nH]c3ccccc23)C(=O)CN(C(=O)/C=C/c2ccccc2)C(C)C)cc1	0	6
O=C1c2ccccc2-c2nc3nonc3nc21	0	-5
C=C(NN=c1sc2ccccc2n1C)c1ccco1	-8	-11
COC(=O)CCc1c(C)nn(-c2ccc(C(=O)N3CCC(NC(=O)OC(C)(C)C)C3)cc2)c1C (stereo unspecified)	-2	-4
COc1ccc(C(=O)NC2CCN(c3ccccc3C(=O)NCC3CCCO3)CC2)cc1 (stereo unspecified)	0	4
O=C(N(c1ccccc1)c1ccccc1)n1cncn1	0	0
O=C(NCCCNC(=O)C1CCC1)Nc1cc(F)cc(F)c1	-3	-4
COc1ccc(C)c2sc(N(Cc3cccnc3)C(=O)C3=COCCO3)nc12	-12	-12
CNC(c1ccccc1C)C(C)C (stereo unspecified)	12	4
COc1ccc(-n2cccn2)c(CN(C)C(C)C(=O)N(C)C)c1 (stereo unspecified)	-1	-3
O=C(N1CCN(Cc2nnnn2-c2ccc(F)c(F)c2)CC1)C12CC3CC(CC(C3)C1)C2	0	1
NS(=O)(=O)c1ccc(N2CCOCC2)c(C(=O)OC(C(=O)c2ccccc2)c2ccccc2)c1 (stereo unspecified)	1	4
C=CCCCCCCCCC(=O)Nc1c(C)[nH]n(-c2ccccc2)c1=O	7	2
CCOc1cccc2cc(-c3csc(Nc4cccc(C(F)(F)F)c4)n3)c(=O)oc12	-5	-8
CC1(C(=O)NS(=O)(=O)Cc2cccc(Cl)c2)CCN1C(=O)Cc1cccs1 (stereo unspecified)	-1	-7
CCCc1c(C)nn(-c2ccc(C(=O)NCCc3c[nH]c4ccccc34)cc2)c1C	2	-3
CCN(C)C(=O)C1=CN2CCN(Cc3ccccc3)C(=O)N=C2O1	-1	-4
CC(C)Oc1ccc(CN2CCCC(CCC(=O)Nc3ccccc3F)C2)cc1 (stereo unspecified)	6	6
C=CCN1C(=O)C2(NC(CC(C)C)C3C(=O)N(CCCC)C(=O)C32)c2ccccc21 (stereo unspecified)	-1	-6
COc1ccc(OC)c2sc(N(CCN(C)C)C(=O)c3cc(C)n(C)n3)nc12	8	6
CNC(=O)COC(=O)c1cccc(C)c1-n1cccc1	-4	-5
COc1ccc(-c2cc(C(=O)N3CCC4(CC3)OCCO4)n(-c3ccccc3)n2)cc1	-7	-1
CC(C)n1nnnc1SCC(=O)NC(=O)NC1CCS(=O)(=O)C1 (stereo unspecified)	9	13
CCc1nc(C)sc1CNC(=O)c1cccc2c1OCC2	5	5
CS(=O)(=O)N1CCc2cc(C(=O)CSc3nnnn3C3CC3)ccc21	19	20
Cc1cc(F)ccc1NC(=O)CCc1nc(C(C)C)no1	-1	0
O=C(NCc1ccc2c(c1)OCO2)c1cn(Cc2cccc(F)c2)c(=O)s1	10	4
O=C(NCCc1cccs1)c1ccc(-c2cc(-c3cccc4c3OCCO4)[nH]n2)cc1	3	-8
CCN1C(=O)NC(c2ccc(Cl)cc2Cl)C2=C1CN(C(C)C(=O)NCc1ccc(-c3ccccc3)cc1)C2=O (stereo unspecified)	0	14
Cc1cccnc1C(NC(=O)c1cccc(C#CC(C)(C)O)c1)C1CC1 (stereo unspecified)	-1	1
COc1ccc(CNC(=O)c2cccnc2N2CCN(C(=O)c3ccc(OC)c(F)c3)CC2)cc1	24	16
O=C(O)c1cccc(N2C(=O)CSC2c2ccccc2Br)c1 (stereo unspecified)	-7	-12
Cc1ccccc1Cn1c(C)c(N2CCOCC2)c(C)c1C(=O)NCCc1ccccn1	16	22
COc1cccc(/C=N\NC(=O)CSc2nc3ccccc3[nH]2)c1O	4	6
CC1(C)O[C@@H]2C[C@@](OCc3ccccc3C#N)(C(=O)NCC3CCCO3)CC(OCc3ccc(C(F)(F)F)cc3)[C@@H]2O1 (stereo partly specified)	-8	-15
CC(C)c1ccc2c(c1)c(SC(C)(C)C)c(CC(C)(C)C(=O)O)n2Cc1ccc(Cl)cc1	-2&5	-5&-34
CCCCCN1CCN(c2nc3c(c(=O)[nH]c(=O)n3C)n2Cc2ccc(F)cc2)CC1	-1	1
CCCn1cc(C(=O)N(Cc2ccncc2)C(C)CC)c(C)n1 (stereo unspecified)	15	12
CNC(=O)c1sc(C2(NC(=O)c3ccccc3)CCCC2)nc1C	7	3
CC(C)S(=O)(=O)c1ccc(C(=O)Nc2onc3c2CCCC3)cc1	13	7
CCC1(C)NC(=O)N(N=Cc2c(C)nc3scc(C)n23)C1=O (stereo unspecified)	0	16
Cc1noc(C2CN(C(=O)c3ccc(-n4cccc4)cc3)C2)n1	2	-2
CCC(=O)OCc1cc(F)cc2c1OC(c1ccccc1)OC2 (stereo unspecified)	4	5
CCOC(=O)c1cc(C(C)CC)n(-c2ccc(C(=O)Oc3ccc([N+](=O)[O-])cc3)cc2)n1 (stereo unspecified)	1	-3
CCOc1cc(C(=O)N2CCCC(C)C2)cc(Cl)c1O (stereo unspecified)	-7	-10
CC(C)c1ccccc1N1C(=O)CSC1c1ccccc1NC(=O)c1ccc(Br)cc1 (stereo unspecified)	0	1
O=C(c1ccc(F)cc1)N1CCC2(CC1)NC(=O)N(Cc1ccccc1)C2=O	4	3
CN(C)c1ccc(NC(=S)NC23CC4CC(CC(C4)C2)C3)cc1	4	3
Cn1cc(CNCc2ccccc2-n2cncn2)c(-c2ccc(Oc3ccccc3)cc2)n1	2	1
COc1ccc2c(c1OC)C(=O)O[C@@H]2[C@H]1c2c(cc3c(c2OC)OCO3)CCN1C	-7&3	-11&-30

Next section.
SMILES	NPYLR7 ag	NPYLR7 ag max-min
OCc1cc(Cl)ccc1Sc1ccccc1F	-1	-2
CC(C)[C@H]1CC[C@H](C)C[C@@H]1OCC(=O)NCCc1nc2ccccc2[nH]1	-8	-14
Cc1ccccc1NC(=O)N(CC(=O)N(Cc1ccc2c(c1)OCO2)Cc1sccc1C)C(C)C	7	3
Fc1ccc(NN=Cc2ccc(F)c(F)c2)c(F)c1	4	1
Cc1ccc2oc(C(=O)N(C)CCc3ccccc3)cc2n1	-2	-7
CN(C)c1ccc(CN2CCC3(CC2)C(=O)N(Cc2ccccc2)C(=O)N3CCc2ccccc2)cc1	5	-2
O=C(NOCc1ccccc1)C(c1ccccc1)N1CCCC1 (stereo unspecified)	-4	-7
NC(=O)c1ccc(NC(=O)Cn2nc(-c3ccccc3)c3sc(N4CCOCC4)nc3c2=O)cc1	-1	-6
CN(C)C1(CNC(=O)c2cc(C3CC3)[nH]n2)CCSC1 (stereo unspecified)	2	5
COc1ccc(C)c2sc(N(Cc3cccnc3)C(=O)/C=C/c3cccs3)nc12	-12	-11
COc1cn(CC(=O)Nc2ccc(C)cc2)c(CSc2ccc(C)cc2)cc1=O	-2	-7
Cc1cc(C(=O)N(Cc2ccco2)c2nc3ccccc3s2)n(C)n1	5	2
CN1C(C(=O)NC(C)(C)CO)=CC(c2ccco2)=NS1(=O)=O	0	-2
Cc1nnsc1CN(C)c1nc(CCN)nc2ccccc12	16	10
COc1cn(CC(=O)Nc2ccc(C(N)=O)cc2)c(CO)cc1=O	2	1
CCc1ccc(Nc2nnc(SCC(=O)N(C)CC(=O)Nc3cc(C)ccc3C)s2)cc1	-6	-6
CO[C@H]1[C@H](NC(=O)c2ccccn2)c2ccccc2C12CCN(C(=O)CSc1ccccc1)CC2	-1	-5
Cc1nc(C)c(CNC2CCCSC2)s1 (stereo unspecified)	-2	-4
CN(C)Cc1csc(-c2nccn2CCc2cccnc2)c1	5	2
COc1ccc(-c2cc(N)n(-c3ccc(C(=O)NCc4ccncc4)cc3)n2)cc1	1	1
CCOC(=O)c1[nH]c(CN2CCOCC2)c(C(=O)OCC)c1C	-1	-3
CCCCCCNC(=O)c1cc(-c2ccc(C)o2)nn1-c1ccccc1	5	20
CC(C)(C)C(=O)COC(=O)c1nccnc1N	0	-1
CCCCC(=O)N(C)c1c(C)nc2ccc(C(=O)Nc3cccc(OC)c3)cn12	-1	-10
CN(Cc1cnc(N)nc1)Cc1cnn(-c2ccc(F)cc2)c1	3	1
c1ccc(-c2nnc(CSc3nnc(NC4CC4)s3)o2)cc1	0	2
COCCOC1CCN(Cc2c(C(=O)N3CCCC3)nc3ccccn23)CC1	8	10
O=C(CSc1nc(=O)n(CCO)c2c1CCC2)Nc1ccc(F)cc1F	-1	-11
CCOCCCN(CC(=O)N(Cc1ccccc1)Cc1sccc1C)C(=O)c1cccc(Br)c1	-5	-5
CCOC(=O)C1CCCN(C(=O)c2nn(-c3ccccc3F)c(=O)n(Cc3cccc(C(F)(F)F)c3)c2=O)C1 (stereo unspecified)	-5	-3

14 successive records out of the list so far:
SMILES	NPYLR7 ag	NPYLR7 ag max-min
Cc1nnsc1CN(C)c1nc(CCN)nc2ccccc12	16	10
COc1cn(CC(=O)Nc2ccc(C(N)=O)cc2)c(CO)cc1=O	2	1
CCc1ccc(Nc2nnc(SCC(=O)N(C)CC(=O)Nc3cc(C)ccc3C)s2)cc1	-6	-6
CO[C@H]1[C@H](NC(=O)c2ccccn2)c2ccccc2C12CCN(C(=O)CSc1ccccc1)CC2	-1	-5
Cc1nc(C)c(CNC2CCCSC2)s1 (stereo unspecified)	-2	-4
CN(C)Cc1csc(-c2nccn2CCc2cccnc2)c1	5	2
COc1ccc(-c2cc(N)n(-c3ccc(C(=O)NCc4ccncc4)cc3)n2)cc1	1	1
CCOC(=O)c1[nH]c(CN2CCOCC2)c(C(=O)OCC)c1C	-1	-3
CCCCCCNC(=O)c1cc(-c2ccc(C)o2)nn1-c1ccccc1	5	20
CC(C)(C)C(=O)COC(=O)c1nccnc1N	0	-1
CCCCC(=O)N(C)c1c(C)nc2ccc(C(=O)Nc3cccc(OC)c3)cn12	-1	-10
CN(Cc1cnc(N)nc1)Cc1cnn(-c2ccc(F)cc2)c1	3	1
c1ccc(-c2nnc(CSc3nnc(NC4CC4)s3)o2)cc1	0	2
COCCOC1CCN(Cc2c(C(=O)N3CCCC3)nc3ccccn23)CC1	8	10

Other entries
SMILES	NPYLR7 ag	NPYLR7 ag max-min
Cc1csc(N(CC(F)(F)F)C(=O)c2cc(Cl)c3c(c2)OCO3)n1	-6	407
O=C(c1c(Cl)cc(Cl)cc1Cl)N1CCC(c2nc(-c3ccc4c(c3)OCO4)no2)CC1	3	-2
COc1ccc(CN(CCc2c[nH]c3ccccc23)C(=O)CN(C(=O)c2cc(OC)cc(OC)c2)C2CC2)cc1	0	4
Cc1nc2scc(C)n2c(=O)c1NC(=O)C1CCCO1 (stereo unspecified)	18	9
Cc1nn(-c2ccc(C(F)(F)F)cc2)c(C)c1CCC(=O)N[C@H]1CCCCNC1=O	1	3
O=c1c(Oc2ccccc2)c(C(F)(F)F)oc2cc(O)ccc12	-5	-8
Cc1cc(Br)c2c(c1)/C(=C1/SC(=S)NC1=O)C(=O)N2C	-7	-7
O=S(=O)(NCc1ccc(Cl)cc1)N1CCCCCC1	1	-1
Cc1ccc(-n2nnnc2NCC2CCCOC2)cc1 (stereo unspecified)	0	-1
COC(=O)C(C)N1CCN(CC(=O)N(C)C)CC1 (stereo unspecified)	4	1
COCCCN(CC(=O)N(CCc1c[nH]c2ccccc12)Cc1ccc(C(F)(F)F)cc1)S(=O)(=O)c1cccc(C(F)(F)F)c1	-5	7
CC1C(=O)N(c2ccc3c(c2)CCC3)CCN1C(=O)c1ccc2c(c1)OCO2 (stereo unspecified)	0	5
Cc1ccc(-c2nc(C)c(Cc3ccccc3)c(N3CCN(C(=O)/C=C/c4ccccc4)CC3)n2)cc1	-11	-5
CCN(CC)c1ccc2cc(-c3nnc(-c4cccc(Br)c4)o3)c(=O)oc2c1	-4	-3
Cc1ccc(-n2ncc3c(=O)n(NC(=O)Cc4ccccc4)cnc32)cc1C	1	-2

Random excerpt: 2 entries already listed
SMILES	NPYLR7 ag	NPYLR7 ag max-min
Cn1cc(CNCc2ccccc2-n2cncn2)c(-c2ccc(Oc3ccccc3)cc2)n1	2	1
COc1cn(CC(=O)Nc2ccc(C(N)=O)cc2)c(CO)cc1=O	2	1

Following part.
SMILES	NPYLR7 ag	NPYLR7 ag max-min
CCOC(C)=C(C#N)C(=O)O	14	10
COc1ccc(CCN(C)c2cc(-c3ccccc3)nc(SCc3ccc(C(=O)NCc4ccncc4)o3)n2)cc1OC	9	-7
CCn1c(=O)c(C(=O)NC(C)C)nn(-c2ccc(C)c(F)c2)c1=O	-5	-3
CCn1cc(C(CC(=O)NC(C)c2ccccc2)c2cccc(C)c2)c2ccccc21 (stereo unspecified)	19	26
CCN(Cc1ccncc1)C(=O)CC(=O)Nc1cc(C)cc(C)c1	3	-3
Cc1ccc(S(=O)(=O)N2CC(=O)N(CC(O)C(F)(F)F)CC(C)(C)C2)cc1 (stereo unspecified)	0	10
COC(C)c1nncn1-c1cccc2ccccc12 (stereo unspecified)	4	18
CN(Cc1ccco1)C(=O)c1ccccc1N1CCC(NC(=O)C2CCC2)CC1	-2	10
Cc1nnsc1CNC(=O)CC1COc2ccc(C(=O)N(C)C)cc2N1C (stereo unspecified)	3	1
COc1ccc(N2CN(C(=O)CN(C(=O)c3cc(OC)cc(OC)c3)C3CC3)CC2=O)cc1	26	30
CC(C(=O)N1CCCCC1)N(C)CC(=O)Nc1ccc(Cl)cc1 (stereo unspecified)	3	4
C=CCOCC(O)CN(Cc1ccc2c(c1)OCO2)Cc1cccc(OC)c1OC (stereo unspecified)	14	20

High-throughput results as filed in PubChem BioAssay.
